TRPML1 blocker – human mucolipin-1 channel inhibition | activity change, negative = inhibition, % (test concentration not listed) | Q9GZU1 | TRPML1-inducible cells, Ca2+ dye fluorescence, FDSS; stronger effect = lower value; inhibition of EC80 agonist-evoked calcium signal | actives 0.02% (n = 390,000); in the data active means activity change below about -50%; inconclusive means about -30% to -50%; inactive means above about -30%;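 note: stimulus is agonist 54-4 at its EC80 concentration; % is set by controls: 0 for no effect and ±100 for the full control effect; compound concentration not given in the record; the text of the record puts the active cut at -80%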
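Tet-induced TRPML1-DL cells loaded with Ca8 no-wash calcium dye were read kinetically on FDSS. Compound addition was followed by EC80 agonist 54-4 (4 uM final); inhibition was read over 110 s.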
Six1-Eya2 blk – inhibitors of human Six1/Eya2 interaction; AlphaScreen GST-Six1/His-Eya2 binding, biochemical; stronger effect = lower value; control for the full effect not named in the record; Q15475+O00167; actives 0.56% (n = 360,000); activity change, % (test concentration not listed); in the data active = activity change below about -65%; inconclusive = about -30% to -65%; inactive = above about -30%; note: % is set by controls: 0 for no effect and ±100 for the full control effect; compound concentration not given in the record
Target sequence (O00167 whole entry, looked up): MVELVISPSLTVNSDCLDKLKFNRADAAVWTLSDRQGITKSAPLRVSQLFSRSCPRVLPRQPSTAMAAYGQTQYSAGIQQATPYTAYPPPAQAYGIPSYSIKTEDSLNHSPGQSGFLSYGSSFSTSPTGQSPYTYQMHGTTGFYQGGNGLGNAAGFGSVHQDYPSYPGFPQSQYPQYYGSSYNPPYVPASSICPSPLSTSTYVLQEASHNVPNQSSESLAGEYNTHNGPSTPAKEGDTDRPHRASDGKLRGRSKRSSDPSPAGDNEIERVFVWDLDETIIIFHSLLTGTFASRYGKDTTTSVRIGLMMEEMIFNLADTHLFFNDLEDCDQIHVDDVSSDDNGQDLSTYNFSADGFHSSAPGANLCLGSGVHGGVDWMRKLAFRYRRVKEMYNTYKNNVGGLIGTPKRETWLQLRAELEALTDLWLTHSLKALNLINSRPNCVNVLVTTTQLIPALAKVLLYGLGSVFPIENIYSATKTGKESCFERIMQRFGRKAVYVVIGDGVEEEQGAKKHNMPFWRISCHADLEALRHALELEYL
Target sequence (Q15475 whole entry, looked up): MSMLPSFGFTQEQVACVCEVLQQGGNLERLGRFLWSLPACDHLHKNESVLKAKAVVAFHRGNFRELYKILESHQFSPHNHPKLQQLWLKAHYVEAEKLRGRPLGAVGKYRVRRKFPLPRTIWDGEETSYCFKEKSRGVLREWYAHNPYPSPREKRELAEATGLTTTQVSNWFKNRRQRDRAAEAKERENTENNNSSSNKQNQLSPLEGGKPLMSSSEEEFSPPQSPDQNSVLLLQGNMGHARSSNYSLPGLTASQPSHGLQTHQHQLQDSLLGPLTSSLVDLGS
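Six1/Eya2 binding was read as AlphaScreen signal after compounds were pinned into GST-Six1 plus His-tagged Eya2 (5X stock 250/500 nM) in pH 8.0 Tris/NaCl/TCEP buffer, beads added, then incubated 1 h, 37 C, dark.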
D2 PAM – positive allosteric modulators of human D2 dopamine receptor; DiscoveRx D2 beta-arrestin cells, luminescence, 90 min; 100% = 57 uM dopamine signal; potentiation, % (no concentration beside the values); actives 0.23% (n = 360,000); active = potentiation of 50% or more; inconclusive = 30% to 50%; inactive = 30% or less;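 note: compound concentration not given in the record; tested on top of an EC20 dose of dopamine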
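D2 cells co-treated with compound plus 50 nM dopamine (EC20) for 90 min at 37 deg C to detect potentiation. Beta-arrestin recruitment was read as enzyme-fragment luminescence after 1 h at ambient temperature. Full response was set by 57 uM dopamine.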
TRPML1 ag – activates the human TRPML1 channel; TRPML1-expressing cells, Ca2+ dye fluorescence, FDSS; host cell line not named in the record; reference of the full effect not given here; activation, % (test concentration not listed); actives 0.12% (n = 410,000); AID 624414; in the data active = activation above about 50%; inconclusive = about 30% to 50%; inactive = below about 30%; note: 0% is about no effect; the text of the record puts the active cut at 80%
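Agonist activity was taken from a 110 s kinetic Ca2+ dye read on the FDSS after pinning compounds onto TRPML1-DL cells. The cells were seeded at 1,500/well with Tet inducer, incubated about 16 h, then dye-loaded at room temperature.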
TRPV1 potentiator – potentiators of human vanilloid receptor 1 (TRPV1); TRPV1-expressing cells, Fluo-8 calcium influx, capsaicin EC20 potentiation; host cell line not named in the record; control for the full effect not named in the record; potentiation, % at 8.33 µM; actives 0.02% (n = 320,000); AID 540277; active means potentiation above 80%; inconclusive means 30% to 80%; inactive means below 30%; note: 0% is about no effect
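Fluo-8 calcium influx in TRPV1-expressing cells, kinetic read (ex 480/em 520 nm). Compound added and read 3 min for agonist activity, followed by capsaicin at EC20 final and 2 min further read for enhancement.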
CtBP-E1A inh – blocks the CtBP interaction with E1A; AlphaScreen GST-E1A/His-CtBP binding, 1536-well; stronger effect = lower value; control for the full effect not named in the record; activity change, % (test concentration not listed); actives 0.49% (n = 340,000); AID 651724; in the data active means activity change below about -65%; inconclusive means about -30% to -65%; inactive means above about -30%; note: % is set by controls: 0 for no effect and ±100 for the full control effect; compound concentration not given in the record
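Homogeneous bead-based format: GST-tagged E1A captured on glutathione donor beads, His-tagged CtBP on nickel acceptor beads; compounds precede bead addition by 2 h at 37 °C.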
Starred values were filed as active, the others as inactive; ? = inconclusive; nt = not tested or not shown; & = joins results of further samples.

nr	canonical_smiles	TRPML1 blocker	Six1-Eya2 blk	D2 PAM
1	O=C1CCCc2c1[nH]c1ccc(CN3CCCCC3)cc21	4	-13	-16
2	Cc1cc(=O)[nH]c(N/N=C/c2ccc(Br)s2)n1	10	-73*	-30
3	CCOCCCn1c(=NC(=O)c2cccs2)c(C#N)cc2c(=O)n3cccc(C)c3nc21	11	0	-5
4	O=C(O)c1ccc(NS(=O)(=O)c2ccc3c(c2)C(=O)c2ccccc2C3=O)cc1	2	-72*	29
5	COc1ccccc1N1C(=O)C2C(c3ccc(F)cc3)NN(C(=O)c3ccc(C)cc3)C2C1=O (stereo not given)	3	-2	-15
6	CCn1nnc(NC(=O)c2ccc(C(C)(C)C)cc2)n1	-4	2	-4
7	CCN(Cc1ccccc1)C(=O)c1ccc(C(=O)N(CC)Cc2ccccc2)cc1	-2	6	-6
8	CN(CC(=O)Nc1ccc(F)cc1)C(=O)C1CC(=O)N(Cc2ccccc2)C1 (stereo not given)	6	3	-8

nr	TRPML1 ag	TRPV1 potentiator	CtBP-E1A inh
1	0.1	-19	-12
2	-0.2	4	?
3	4.0	14	nt
4	-0.3	1	?
5	0.4	-24	nt
6	-0.9	-4	2
7	0.5	0	-2
8	0.1	8	-10

Continued:
nr	canonical_smiles	TRPML1 blocker	Six1-Eya2 blk	D2 PAM
9	CCOC(=O)c1sc(NC(=O)COC(=O)c2ccco2)nc1C	19	-3	4
10	CC(=O)Nc1sc(C)c(C)c1C(=O)OCC(=O)NC(C)c1ccccc1 (stereo not given)	13	3	-1
11	O=C(NN1CCOCC1)c1cc(-c2ccc(Br)cc2)nc2ccccc12	28	1	2
12	COc1ccccc1/C=C/C(=O)OCC(=O)Nc1ccc2c(c1)OCO2	17	-7	-7
13	Cc1cc(Oc2ccc(C)c(Cl)c2)nc(SCC(=O)c2ccccc2)n1	-6	2	-18
14	CC(NC(=O)CCNS(=O)(=O)c1cccc2nsnc12)c1ccccc1 (stereo not given)	-2&-2	-1	-2
15	CS/C(=N\N(C)C(N)=O)c1ccccc1	-4	2	7
16	CCCn1c(N)c(C(=O)CSc2nnnn2-c2ccc(O)cc2)c(=O)n(C)c1=O	11	1	-6

nr	TRPML1 ag	TRPV1 potentiator	CtBP-E1A inh
9	-0.6	-11	-1
10	0.4	-5	-7
11	-0.2	-6	7
12	7.6	nt	-3
13	1.2	-2	-4
14	-0.5&-0.5	7	12
15	-0.7	-6	-5
16	0.1	10	-1

(listing goes on)
nr	canonical_smiles	TRPML1 blocker	Six1-Eya2 blk	D2 PAM
17	COC(=O)CC1C(=O)NCCN1C(=S)Nc1ccc(F)cc1 (stereo not given)	6	2	-2
18	O=C(Cn1cc(S(=O)(=O)Cc2cccc([N+](=O)[O-])c2)c2ccccc21)N1CCOCC1	-12	-10	-17
19	c1ccc(-c2ccccc2OCCCN2CCCCCC2)cc1	18	-2	-12
20	O=C(Nc1cccc(-c2cn3cccnc3n2)c1)c1ccc(Br)o1	-8	-12	7
21	Cc1cc(C)nc(SCc2nnc(SCC(=O)NCc3ccco3)n2-c2ccccc2)n1	2	-3	-1
22	CC(NC(=O)COC(=O)c1ccc2c(c1)OCO2)c1ccccc1 (stereo not given)	25	3	-4
23	COc1ccc(-n2nc(C(=O)NCC(=O)N3CCCCCC3)c3ccccc3c2=O)cc1Cl	7	-7	0
24	COc1ccc(S(=O)(=O)Nc2ccc3c(c2)C(=O)N([C@H](C)CO)C[C@H](C)[C@@H](CN(C)C(=O)Nc2ccc(F)cc2)OCCCC[C@H](C)O3)cc1	-10	8	-1

nr	TRPML1 ag	TRPV1 potentiator	CtBP-E1A inh
17	6.1	3	11
18	0.0	3	9
19	0.5	3	nt
20	0.5	6	-16
21	-0.8	23	-1
22	0.1	-9	4
23	0.4	-3	2
24	0.1	nt	0

Next part.
nr	canonical_smiles	TRPML1 blocker	Six1-Eya2 blk	D2 PAM
25	O=C1CCN(Cc2nnnn2CC2CCCO2)c2ccccc2N1 (stereo not given)	-10	3	-9
26	COc1cc(OC)cc(-c2sc3ccc(OC)cc3c2-c2ccc3cc[nH]c3c2)c1	-1	-10	-8
27	COc1ccc(OC)c(-c2cc(C3CCN(c4cc(Cl)nc(N)n4)CC3)[nH]n2)c1	-6	-19	14
28	Cc1nc(NNC(=O)c2ccc([N+](=O)[O-])cc2)cc(-c2ccccc2)n1	-9	-13	-31
29	CC(C)c1cc(-c2cc(-c3ccccc3)on2)nc(NC2CCCC2)n1	-3	-3	-1
30	Cc1ccc(S(=O)(=O)N(C)Cc2ccc(C(=O)NN=C(CC(C)C)CC(C)C)cc2)cc1	-3	-5	-15
31	COc1cc(S(=O)(=O)N2CCN(C(=O)c3ccco3)CC2)ccc1Cl	1	1	0
32	CCCSc1nnc(NC(=O)CSc2nc3[nH]c(=O)cc(O)c3s2)s1	39	-1	-3

nr	TRPML1 ag	TRPV1 potentiator	CtBP-E1A inh
25	0.4	0	-5
26	-0.1	nt	nt
27	0.0	nt	9
28	-0.1	1	1
29	0.1	4	21
30	0.6	-12	0
31	1.1	-3	-5
32	-0.8	-18	0

Looked up by structure from the list above, 4 records:
nr	canonical_smiles	TRPML1 blocker	Six1-Eya2 blk	D2 PAM
29	CC(C)c1cc(-c2cc(-c3ccccc3)on2)nc(NC2CCCC2)n1	-3	-3	-1
26	COc1cc(OC)cc(-c2sc3ccc(OC)cc3c2-c2ccc3cc[nH]c3c2)c1	-1	-10	-8
31	COc1cc(S(=O)(=O)N2CCN(C(=O)c3ccco3)CC2)ccc1Cl	1	1	0
27	COc1ccc(OC)c(-c2cc(C3CCN(c4cc(Cl)nc(N)n4)CC3)[nH]n2)c1	-6	-19	14

nr	TRPML1 ag	TRPV1 potentiator	CtBP-E1A inh
29	0.1	4	21
26	-0.1	nt	nt
31	1.1	-3	-5
27	0.0	nt	9

(next part)
nr	canonical_smiles	TRPML1 blocker	Six1-Eya2 blk	D2 PAM
33	O=C(Nc1sc2c(c1C(=O)NC1CC1)CCCCCC2)c1ccco1	4	4	-7
34	COC(=O)c1cc(S(=O)(=O)NCC2CCN(Cc3cccc(F)c3)CC2)c[nH]1	7&-10	1	-15
35	CCn1c(N2CCN(CC(=O)c3c(C)n(C)c4ccc(OC)cc34)CC2)nc2c1c(=O)[nH]c(=O)n2C	6	-3	-4
36	CCOc1ccc2nc(NC(=O)CSc3nc4ccccc4c(=O)n3Cc3ccco3)sc2c1	3	9	-4
37	CCCNC(=O)Cn1nc(C(F)(F)F)cc1C	7	-1	-2
38	Cc1cc(C)c2sc(N(CCCN(C)C)C(=O)CN3C(=O)c4ccccc4C3=O)nc2c1	nt	-6	-22
39	O=C(Nc1ccc2c(c1)nc1n2CCSC1)c1ccccc1	5	0	-5
40	Cc1ccc2nc(C(=O)O)c(C(=O)O)nc2c1	-17	5	-13

nr	TRPML1 ag	TRPV1 potentiator	CtBP-E1A inh
33	0.3	nt	13
34	-0.1&-0.7	1	nt
35	-0.1	-7	4
36	0.5	6	0
37	0.0	6	11
38	nt	9	-3
39	-0.9	0	-3
40	0.4	3	-9

Continued:
nr	canonical_smiles	TRPML1 blocker	Six1-Eya2 blk	D2 PAM
41	COc1ccc(CCNC(=O)c2ccc(Cl)cc2Cl)cc1OC	-7	-2	-4
42	COc1cc(Br)cc2cc(C(=O)N3CCN(C(=O)c4ccco4)CC3)c(=O)oc12	3	-24	-14
43	C/C(CC(=O)NC12CC3CC(CC(C3)C1)C2)=N\NC(=O)c1ccc(C)cc1	5	2	-7
44	CCOC(=O)CCNC(=O)N1CCCC(CCC(=O)N(C)CCc2ccccn2)C1 (stereo not given)	-9	16	-6
45	C/C=C(\C)C(=O)NCCN1C2=NC[C@@H](C)N2C[C@H]1Cc1ccc(O)cc1	-1	5	-14
46	CCOC(=O)C(CCC#N)(CCC#N)C(=O)OCC	-1	3	-8
47	CCOc1ccc(CC(=O)NNC(=O)NC2CCCCC2)cc1	0	1	-4
48	O=C(c1ccccc1)N1CCN(CC(O)COC2CCCCC2)CC1 (stereo not given)	-10	3	-26

nr	TRPML1 ag	TRPV1 potentiator	CtBP-E1A inh
41	0.1	-24	8
42	2.1	18	-1
43	-0.1	1	4
44	0.1	4	nt
45	-0.3	-8	-27
46	-0.6	28	-4
47	-0.4	16	4
48	-0.4	-2	10

Additional records.
nr	canonical_smiles	TRPML1 blocker	Six1-Eya2 blk	D2 PAM
49	COc1ccc(C(O)P(=O)(OCc2ccccc2)c2ccc(N(C)C)cc2)cc1 (stereo not given)	-2	0	-2
50	CCOC(=O)c1sc(NC(=O)CSc2nc3c(cc2C#N)CCCCCC3)c(C#N)c1C	-21	1	-6
51	O=C(Nc1ccc(F)cc1F)c1c(C(F)(F)F)ccnc1Oc1ccccc1	20	10	0
52	CC(C)(C)NC(=O)C[C@H]1C[C@H](C(=O)N2CCCCC2)[C@@]2(C)c3[nH]c4cc(-c5ccco5)ccc4c3CCN2C1=O	4	-14	-7
53	COc1ccc(N2CCN(CC(=O)Nc3ccc(C)cc3Br)CC2)cc1	11	0	-22
54	CCSc1nnc(NC(=O)C2CC(=O)N(Cc3ccc(C)cc3)C2)s1 (stereo not given)	6	-2	-2
55	O=C1N=c2ccccc2=C1c1sc(=O)[nH]c1O	52	-5	-6
56	CCC(=O)Nc1c(C(=O)N2CCN(c3ccccn3)CC2)cnn1-c1ccc(C)cc1	-4	-1	-6

nr	TRPML1 ag	TRPV1 potentiator	CtBP-E1A inh
49	1.0	0	nt
50	11	27	46
51	0.8	nt	1
52	-0.4	nt	-11
53	-0.3	nt	nt
54	-0.3	-17	0
55	0.8	1	nt
56	0.1	17	5

Carrying on.
nr	canonical_smiles	TRPML1 blocker	Six1-Eya2 blk	D2 PAM
57	O=C(NCc1cccnc1)c1cc(C2CCCN(S(=O)(=O)c3cccs3)C2)on1 (stereo not given)	nt	7	-26
58	CCOC(=O)C1CCCN(S(=O)(=O)c2ccc3c4c2CC(=O)N4CC(C)S3)C1 (stereo not given)	-10	1	11
59	CC(C)Cc1cc(C(=O)Nc2ccc(Br)cc2)no1	nt	8	-17
60	CCc1ccc(S(=O)(=O)Nc2ccncc2)cc1	5	2	0
61	c1ccc(CN(Cc2ccccc2)C(c2ccnc3ccccc23)c2nnnn2-c2ccc3c(c2)OCCO3)cc1 (stereo not given)	nt	-14	nt
62	NC(=O)c1ccc(Oc2ccc(C(N)=O)cc2)cc1	-25	-24	-5
63	N#CNC1=NCN(Cc2ccccc2)CN1	11	-1	5
64	CC[C@H](C)[C@H](NC(=O)c1ccc(Cl)cc1)C(=O)OCC(=O)c1c(N)n(C)c(=O)n(C)c1=O	0	-8	-2

nr	TRPML1 ag	TRPV1 potentiator	CtBP-E1A inh
57	-0.5	nt	3
58	-0.9	-22	1
59	nt	-9	5
60	4.5	-3	8
61	0.9	nt	-1
62	0.0	-1	-2
63	0.6	11	-2
64	0.9	nt	-1

The results go on:
nr	canonical_smiles	TRPML1 blocker	Six1-Eya2 blk	D2 PAM
65	c1ccc(Oc2nc(N3CCOCC3)nc(N3CCOCC3)n2)cc1	2	-9	-17
66	O=C(CSCc1cccc(Br)c1)N1CCOCC1	-7	0	-8
67	COc1ccc(/C=N/NC(=O)c2c(C)nc3ccccn23)cc1[N+](=O)[O-]	0	8	-4
68	CCOC(=O)N1CCC(N2Cc3cccc(C(=O)Nc4ccccc4OC)c3C2=O)CC1	10	-7	1

nr	TRPML1 ag	TRPV1 potentiator	CtBP-E1A inh
65	3.0	-4	-6
66	-0.2	-4	5
67	1.1	-3	2
68	-0.7	0	-9
